# Screens as filed in PubChem BioAssay.
# HCMV UL50-53 inh: cytomegalovirus nuclear egress complex inhibition; HTRF UL50-UL53 interaction, normalized percent inhibition; actives 0.15% (n = 190,000); inhibition, % (no concentration beside the values);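 active = both replicates at 50% or more, plus weaker picks with an unusually low signal ratio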;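 also: stock transfer was 100 nL into about 20 µL; 0% = negative control wells and 100% = wells with untagged competitor protein; inactives centre near -12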
# GIV-Gai inh: inhibitors of GIV GBA-motif binding to rat Galpha-i3; P08753; Galpha-i3/FITC-GIV peptide fluorescence polarization, 90 min; stronger effect = lower value; scaled: aluminum fluoride 0%, vehicle 100%; percent of control (FP), % (no concentration beside the values); actives 0.42% (n = 210,000);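 active = replicate mean at 85% of control or lower, very high polarization wells dropped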;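 also: wells of about 15 µL received 100 nL stock; the first replicate is given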
# Target sequence (P08753 whole entry, looked up): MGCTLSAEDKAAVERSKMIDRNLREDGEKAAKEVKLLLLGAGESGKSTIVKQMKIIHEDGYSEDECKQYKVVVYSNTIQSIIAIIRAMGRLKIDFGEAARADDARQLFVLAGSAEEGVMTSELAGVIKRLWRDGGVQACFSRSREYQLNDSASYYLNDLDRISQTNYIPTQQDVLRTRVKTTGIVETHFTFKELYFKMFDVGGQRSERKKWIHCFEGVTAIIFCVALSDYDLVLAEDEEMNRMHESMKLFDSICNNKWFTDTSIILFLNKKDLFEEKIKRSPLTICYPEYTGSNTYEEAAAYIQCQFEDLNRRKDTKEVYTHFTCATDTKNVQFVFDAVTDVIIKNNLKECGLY
# Sa growth inh: blocks Staphylococcus aureus growth. actives 0.53% (n = 170,000). relative growth, % (test concentration not listed). S. aureus RN4220 growth, OD600, 20 h, 42 °C; stronger effect = lower value;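 active = growth at 42 °C up to 50% and 20 or more points under that at 30 °C, or under 10% at both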;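 also: 300 nL library stock went into each well; scaled to the means of positive and negative controls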
# Sa growth inh second temp: further read-out of Sa growth inh, marked with its call; relative growth, %; measured here: growth at 30 °C;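 optical density after 20 h as mean of two plates; 100% = untreated growth and lower means inhibition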
# * marks the source's active call; other numbers are inactive results; · = no result given. Compounds were not picked by outcome. Share with any hit: about 0.83%.
# Short forms: A = HCMV UL50-53 inh; B = GIV-Gai inh; C = Sa growth inh; D = Sa growth inh second temp
O=C(Cn1c2ccccc2c(=O)c2ccccc21)NC(c1ccccc1)c1ccccc1
  A: -28.0	B: 104.2	C: ·	D: ·
CCn1c(=O)c(N2CCC(C(=O)NCCc3c[nH]c4ccc(Cl)cc34)CC2)nc2cccnc21
  A: -31.8	B: 106.2	C: ·	D: ·
CCOC(=O)Cn1c(=O)oc2cc(S(=O)(=O)N3CCN(c4ccc(F)cc4)CC3)ccc21
  A: 10.7	B: 103.5	C: 93.8	D: 92.1
CC(=NCCN1CCOCC1)c1c(CSc2ccc(C)cc2)[nH]n(-c2nc3ccccc3s2)c1=O
  A: -6.7	B: 101.1	C: ·	D: ·
CCc1ccc(NC(=O)c2ccccc2)cc1
  A: -0.1	B: 102.8	C: 93.4	D: 92.9
CN(C(=O)c1cc2c(=O)n3ccccc3nc2n1C)C1CCCCC1
  A: -32.3	B: 103.0	C: ·	D: ·
COc1ccccc1C(=O)c1cn(CC(=O)Nc2ccccc2F)c2nc(C)ccc2c1=O
  A: ·	B: 113.1	C: 82.2	D: 92.1
COc1ccc(CNC(=O)C2CCN(S(C)(=O)=O)CC2)cc1
  A: ·	B: 102.3	C: 118.3	D: 92.7
COc1ccc(-n2c(C)c(C(C)=O)c3cc(OC(=O)c4ccc(C)cc4)ccc32)cc1
  A: 3.8	B: 106.6	C: 102.0	D: 94.3
COc1ccc(C2CC(c3ccccc3)=NN2C(=O)Cn2c(NCCO)nc3ccccc32)cc1 (stereo not given)
  A: -33.7	B: ·	C: 92.8	D: 96.2
Cc1ccc(Cc2nc3ccccc3nc2SCC(=O)N2CCCCC2C)cc1 (stereo not given)
  A: ·	B: 106.8	C: 84.2	D: 65.9
CCOC(=O)c1c(C)n(-c2ccccc2)c2ccc(OC(=O)c3cccc(C)c3)cc12
  A: -33.1	B: 100.3	C: 94.0	D: 90.3
Cc1ccc(CNC(=O)c2oc3ccc(S(=O)(=O)N4CCCC4)cc3c2C)cc1
  A: -20.9	B: 95.6	C: 96.1	D: 85.3
Cc1ccccc1Cn1c2ccccc2c2cnn(CC(=O)NC3CCCCCC3)c(=O)c21
  A: -13.2	B: 104.0	C: 106.9	D: 88.8
O=C(Nc1nnc(CCS(=O)(=O)c2ccc(Br)cc2)s1)c1ccccc1Cl
  A: 1.4	B: 102.0	C: ·	D: ·
CCOC(=O)c1c(CS(=O)(=O)c2ccccc2)n(C)c2cc(Br)c(O)cc12
  A: -23.3	B: 97.3	C: ·	D: ·
COc1ccccc1NC(=O)N1CCN(c2nnc(C)c3c(C)n(-c4ccc(Cl)cc4)nc23)CC1
  A: ·	B: 100.5	C: 106.2	D: 90.8
COc1cc(NC(=O)c2nn3c(c2Br)NC(c2cccs2)CC3C(F)(F)F)cc([N+](=O)[O-])c1 (stereo not given)
  A: 2.7	B: 91.7	C: ·	D: ·
CCn1c(CCC(=O)Nc2nc3ccccc3[nH]2)nc2cc(S(=O)(=O)N(C)C)ccc21
  A: -4.9	B: ·	C: 81.8	D: 103.0
NS(=O)(=O)c1ccc(NC(=S)NC2CCCCC2)cc1
  A: -16.5	B: 101.4	C: 125.4	D: 91.7
O=C(CSc1nnc(CNC(=O)c2c(F)cccc2Cl)o1)NC1CCCCC1
  A: -25.4	B: 98.1	C: 98.4	D: 85.3
CCc1cccc(NC(=O)CCc2c(C)nc3nc(-c4cc(OC)cc(OC)c4)nn3c2C)c1
  A: -17.0	B: 97.1	C: ·	D: ·
C=CCOc1ccc(CNn2nnnc2N)cc1
  A: -16.6	B: ·	C: 83.5	D: 83.3
O=c1c(S(=O)(=O)c2ccccc2)cn(Cc2ccc(F)cc2)c2cc(N3CCCCC3)c(F)cc12
  A: ·	B: 106.0	C: 110.7	D: 90.2
Fc1ccc(Br)cc1C1C=C(c2ccc(Br)cc2)Nc2nnnn21 (stereo not given)
  A: ·	B: 110.2	C: 101.4	D: 83.3
Fc1ccccc1C1NCCc2c1[nH]c1ccccc21 (stereo not given)
  A: 9.3	B: 103.0	C: ·	D: ·
CC(=O)c1cccc(NC(=O)Cn2c(=O)c(CNc3ccc(C)cc3)cc3cc4c(cc32)OCCO4)c1
  A: ·	B: 101.4	C: 83.8	D: 75.9
CCc1cc(=O)oc2c(C)c(O)ccc12
  A: ·	B: 98.0	C: 100.9	D: 66.5
CC1=CC(C)(C)NC(=S)N1c1ccccc1
  A: -6.8	B: 97.1	C: 75.1	D: 11.8
Brc1ccc(-n2nc(-c3ccccc3)c3cnc4cc5c(cc4c32)OCO5)cc1
  A: 5.1	B: 104.6	C: 94.4	D: 106.1
CN1N=C2c3ccccc3CCC2C1c1ccc(F)cc1 (stereo not given)
  A: -22.3	B: 98.4	C: 88.8	D: 81.9
Cc1ccc(C)c(N2CCN(S(=O)(=O)c3ccc4[nH]c5c(c4c3)CCCCC5)CC2)c1
  A: ·	B: 101.3	C: 85.5	D: 99.2
O=C(NC(=S)NCc1ccco1)c1ccc(Cl)cc1
  A: -13.5	B: 91.9	C: 90.7	D: 84.1
NC(=S)NC12CC3CC(CC(C3)C1)C2
  A: -21.3	B: 101.8	C: 76.1	D: 85.4
COc1cccc(C(=O)NCC(=O)OCc2cc(=O)n3nc(C)sc3n2)c1
  A: ·	B: 105.2	C: 99.4	D: 101.6
N#CC(C(=O)C(F)(F)F)c1ccccc1 (stereo not given)
  A: -17.3	B: 99.9	C: 97.1	D: 94.8
CCCCN1CCC1C(=O)OC (stereo not given)
  A: -22.8	B: ·	C: 109.2	D: 89.0
Cc1oc2ncnc(OCC(=O)NCc3ccc4c(c3)OCO4)c2c1C
  A: -12.4	B: 94.2	C: ·	D: ·
COc1ccc(OC)c(NC(=O)c2cnn(-c3ccc(Br)cc3)c2)c1
  A: -8.1	B: 101.6	C: ·	D: ·
CC(=O)Nc1ccc(Sc2ccc(F)cc2)cc1
  A: 5.8	B: 106.7	C: ·	D: ·
CCOC(=O)c1cc(C(=O)OC)c(C)nc1SCC(=O)OC
  A: -10.0	B: 104.3	C: 91.5	D: 88.2
c1ccc(-c2nn3cnnc3c3ccccc23)cc1
  A: -3.8	B: ·	C: 81.7	D: 86.8
COc1ccc(OC)c2sc(N3CCN(C(=O)C(C)(C)C)CC3)nc12
  A: ·	B: 95.0	C: 95.7	D: 79.0
Cc1ccc2oc(C(=O)Nc3ccc(S(=O)(=O)N4CCCC(C)C4)cc3)cc(=O)c2c1 (stereo not given)
  A: -18.1	B: 101.6	C: 101.9	D: 84.6
O=C(O)/C=C/C(=O)N1CCN(Cc2ccccc2)CC1
  A: -18.7	B: 102.3	C: 94.0	D: 82.4
Cn1ncc(Cl)c1C(=O)N1CCCC1c1ccc(F)cc1 (stereo not given)
  A: -11.0	B: 101.9	C: ·	D: ·
Cc1c(C(=O)NCCCN2CCOCC2)cc(-c2ccccc2)n1-c1ccccc1
  A: 2.8	B: 110.5	C: 100.9	D: 100.3
Clc1cccc(Cl)c1Cn1nnc(-c2ccccc2)n1
  A: -14.7	B: 105.2	C: 100.0	D: 109.1
COc1cccc(Cn2ccn(Cc3ccccc3)c(=O)c2=O)c1
  A: -27.9	B: 103.4	C: 95.5	D: 82.8
N#Cc1ccccc1OCC(=O)O
  A: -20.5	B: ·	C: 100.7	D: 90.1
COc1cc(Nc2nc(SCc3ccccc3F)nc3ccccc23)cc(OC)c1
  A: ·	B: 111.7	C: 117.9	D: 94.5
COc1cccc(NC(=O)Cc2ccc3nc(NC(C)=O)sc3c2)c1
  A: -16.6	B: 102.9	C: ·	D: ·
CC(Nc1nc2nonc2nc1N1CCCC1)c1ccccc1 (stereo not given)
  A: -57.8	B: 105.9	C: ·	D: ·
COc1ccc(CNC(=O)CN(c2ccc(C(C)C)cc2)S(=O)(=O)c2c(C)nn(C)c2C)cc1
  A: -7.7	B: 107.9	C: 99.1	D: 98.2
N#Cc1ccc(COC(=O)c2cccnc2Cl)cc1
  A: -15.3	B: ·	C: 86.5	D: 78.8
O=C(OCc1c(F)cccc1Cl)c1ccco1
  A: 1.5	B: 110.1	C: 94.6	D: 97.2
CCN(CC)CC(=O)N1CCCC1=O
  A: 1.5	B: 102.9	C: 111.9	D: 96.7
CN=C(Nc1ccc(Cl)c(Cl)c1)c1ccco1
  A: -18.6	B: ·	C: 90.4	D: 90.6
COc1ccccc1CN(C)C(=O)CSc1nc2sccc2c(=O)n1C
  A: -6.5	B: ·	C: 85.3	D: 82.1
COC(=O)C1=C(C)OC(N)=C(C#N)C1c1cccc(OCc2ccc(F)cc2)c1 (stereo not given)
  A: -14.9	B: 104.7	C: ·	D: ·

# The list continues.
# Short forms: A = HCMV UL50-53 inh; B = GIV-Gai inh; C = Sa growth inh; D = Sa growth inh second temp
COCCNC(=O)Cn1nc(-c2ccccc2)c2ccccc2c1=O
  A: ·	B: 103.3	C: 92.5	D: 88.5
N/C(=N\c1nc(=O)c2ccccc2s1)NC(=O)c1ccc(Cl)c(Cl)c1
  A: ·	B: 99.6	C: 83.7	D: 89.0
O=c1cc(CNc2ccccc2Cl)nc2nc(NCc3ccccc3)[nH]n12
  A: 0.6	B: 103.8	C: ·	D: ·
CCN(CCCNC(=O)c1nn(C)c2c1CSc1ccccc1-2)c1ccccc1
  A: 3.9	B: 109.6	C: ·	D: ·
COc1ccccc1NC(=O)Cc1noc(COC(=O)c2c(F)cccc2Cl)n1
  A: -11.9	B: ·	C: 95.7	D: 84.0
Cc1nc(=O)c(-c2ccccc2)c(C)n1-c1cccc(/C=C/C(=O)O)c1
  A: -45.2	B: ·	C: 106.5	D: 88.8
Cc1cc(C)cc(N2C(=O)CSC23C(=O)N(Cc2c(F)cccc2Cl)c2ccccc23)c1 (stereo not given)
  A: ·	B: 106.4	C: 45.1	D: 48.1
O=C(O)c1cccc(S(=O)(=O)Nc2ccc(O)cc2)c1
  A: -22.8	B: 97.6	C: 92.8	D: 82.3
CN1CCC(N(C)CC(O)COc2ccccc2-c2ccccc2)CC1 (stereo not given)
  A: -14.3	B: ·	C: 106.7	D: 87.1
O=C(NC1CCN(Cc2ccccc2)CC1)c1ccc(CS(=O)(=O)c2c(Cl)cccc2Cl)o1
  A: 1.9	B: 104.4	C: 107.0	D: 87.6
CCC(C)Nc1cc(C)nc2c(-c3ccc(C)cc3)c(C(F)(F)F)nn12 (stereo not given)
  A: 13.6	B: 97.2	C: ·	D: ·
O=C(Nc1ccc2oc(-c3ccccc3)nc2c1)c1cc([N+](=O)[O-])ccc1Br
  A: -29.4	B: 103.3	C: ·	D: ·
CC(C)n1nc(C(C)(C)C)cc1C(C)(C)C
  A: -2.9	B: 102.2	C: 108.2	D: 106.9
Cc1ccccc1Cn1nnc2c(=O)[nH]c(C3CCN(C(=O)c4ccccc4)CC3)nc21
  A: -2.5	B: 99.1	C: 3.5*	D: 10.2*
CCN(CC)C(=O)CCc1nc(-c2cc3cc(C)ccc3[nH]c2=O)no1
  A: -33.6	B: 104.1	C: ·	D: ·
COc1ccc(-c2nc3cnccn3c2NCc2ccc3c(c2)OCO3)cc1CN1CCOCC1
  A: -37.5	B: 107.5	C: 90.1	D: 74.8
Cc1c(C(=O)OCC(C)C)[nH]c2c1C(=O)CC(c1ccc(F)cc1)C2 (stereo not given)
  A: 3.2	B: 106.1	C: 105.7	D: 91.3
Cn1c(=O)c(=O)n(C)c2cc(S(=O)(=O)N3CCCC3c3cccc(F)c3)ccc21 (stereo not given)
  A: -14.9	B: 93.6	C: ·	D: ·
Cc1cccc(-c2noc(CN(C(C)C)S(=O)(=O)c3ccc(Br)cc3)n2)c1
  A: -13.9	B: 110.3	C: 90.7	D: 77.8
CC(=O)Oc1cccc2c1OCCO2
  A: 1.7	B: 105.2	C: 96.0	D: 91.8
O=S(=O)(Nc1nnc(-c2ccc(Cl)cc2)o1)c1ccc2c(c1)OCCO2
  A: -14.6	B: ·	C: 98.6	D: 86.5
CCn1c2ccccc2c2nnc(N3CCN(c4cccc(C)c4C)CC3)nc21
  A: -6.7	B: 101.2	C: 105.0	D: 95.0
O=C1CC(N2CCN(S(=O)(=O)c3cccs3)CC2)C(=O)N1CCc1ccccc1 (stereo not given)
  A: -24.1	B: ·	C: 82.1	D: 82.3
Cn1nc(C(F)(F)F)c(-c2ccccc2)c1NC(=O)c1cccnc1
  A: 8.5	B: 106.0	C: 102.9	D: 95.2

# A different layout for 4 compounds above:
COc1ccc(-c2nc3cnccn3c2NCc2ccc3c(c2)OCO3)cc1CN1CCOCC1
  HCMV UL50-53 inh: -37.5 | GIV-Gai inh: 107.5 | Sa growth inh: 90.1 | Sa growth inh second temp: 74.8

Cc1c(C(=O)OCC(C)C)[nH]c2c1C(=O)CC(c1ccc(F)cc1)C2 (stereo not given)
  HCMV UL50-53 inh: 3.2 | GIV-Gai inh: 106.1 | Sa growth inh: 105.7 | Sa growth inh second temp: 91.3

Cn1c(=O)c(=O)n(C)c2cc(S(=O)(=O)N3CCCC3c3cccc(F)c3)ccc21 (stereo not given)
  HCMV UL50-53 inh: -14.9 | GIV-Gai inh: 93.6 | Sa growth inh: · | Sa growth inh second temp: ·

Cc1cccc(-c2noc(CN(C(C)C)S(=O)(=O)c3ccc(Br)cc3)n2)c1
  HCMV UL50-53 inh: -13.9 | GIV-Gai inh: 110.3 | Sa growth inh: 90.7 | Sa growth inh second temp: 77.8
